Assay outcomes (PubChem BioAssay)
GLA inh pH 4.5 – qHTS Assay for Inhibitors of Human alpha-Galactosidase at pH 4.5 | purified enzyme, 4-MU-alpha-Gal fluorescence, pH 4.5 | activity change, negative = inhibition, % at 105 µM | 230,000 tested, under 10 active; inconclusive = small, poorly fitted or top-dose-only inhibition, or a rising curve; inactive = flat fitted curve, though single readings scatter; no compound was filed as active;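 note: 0% = full activity with enzyme and -100% = basal without enzyme; dose as in the result columns while the protocol names 77 µM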
miR-21 reporter – qHTS Assay for Modulators of miRNAs and/orActivators of miR-21; AID 2288, 2010; Potency, µM (series often up to 38.3 µM), inactives show at the top dose reporter change, positive = more light; 340,000 tested, under 10 active; HeLa miR-21 FLuc reporter, luciferase, 48 h; active = well fitted rising curve with a large enough effect; inconclusive = small, poorly fitted or top-dose-only effect; inactive = no such curve, though single readings can be large or run the other way;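 note: % of control where 0% means no effect; miR-21 action dims this reporter so a rising signal means less miR-21 action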
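Using DMEM plus 10% FBS, HeLa miR-21-FLuc cells are incubated with test compounds (final up to about 40uM) for 48 hours; firefly luciferase signal is then imaged following reagent-mediated lysis.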
Rango dissoc inh – qHTS Assay for Inhibitors of RanGTP induced Rango (Ran-regulated importin-beta cargo) - Importin beta complex dissociation. 340,000 compounds, 0.071% hits. Potency, µM (titrated, usually from 46.1 µM), for the others: top-dose activity change, negative = inhibition. Snurportin-1 (Homo sapiens) + GTP-binding nuclear protein Ran (Homo sapiens) + Importin …. Biochemical FRET Rango-importin beta, RanGTP-induced dissociation. AID 540253, 2011; active means falling FRET ratio curve, often poorly fitted, with flat reads before Ran was added; inconclusive means other falling curves, or compound fluorescence or quenching; inactive means flat or rising ratio curve;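 note: potency is the fitted concentration of half-maximal effect; % of control where 0% means no effect; nearly all actives have a fitted effect of over 45% in size; -100% = wells without RanGTP and RCC1; the record marks most hits as doubtful in a second field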
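Quantitative HTS using a FRET biosensor: 0.1 uM Rango, 0.25 uM importin beta, 0.6 uM Ran, 2 mM GTP, 0.2 uM RCC1 final, PBS with DTT, Tween-20 and BSA. Post-read taken 45 min after Ran addition.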
Rango complex inh – qHTS Assay for Inhibitors of Rango (Ran-regulated importin-beta cargo) - Importin beta complex formation. Rango CFP/YFP FRET sensor + importin beta, 45 min. 340,000 compounds, 0.031% hits. Potency, µM (titrated, usually from 92.2 µM), for the others: top-dose inhibition of complex formation. AID 540263, 2011. Importin subunit beta-1 (Homo sapiens), Q14974; active = rising FRET ratio curve, often small or poorly fitted; inconclusive = mostly compound fluorescence or quenching in the first reads; inactive = flat curves in all reads;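 note: potency is the fitted concentration of half-maximal effect; 0% = DMSO wells and 100% = buffer wells lacking importin beta; nearly all actives have a fitted effect of over 15% in size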
Target sequence (Q14974 whole entry, looked up): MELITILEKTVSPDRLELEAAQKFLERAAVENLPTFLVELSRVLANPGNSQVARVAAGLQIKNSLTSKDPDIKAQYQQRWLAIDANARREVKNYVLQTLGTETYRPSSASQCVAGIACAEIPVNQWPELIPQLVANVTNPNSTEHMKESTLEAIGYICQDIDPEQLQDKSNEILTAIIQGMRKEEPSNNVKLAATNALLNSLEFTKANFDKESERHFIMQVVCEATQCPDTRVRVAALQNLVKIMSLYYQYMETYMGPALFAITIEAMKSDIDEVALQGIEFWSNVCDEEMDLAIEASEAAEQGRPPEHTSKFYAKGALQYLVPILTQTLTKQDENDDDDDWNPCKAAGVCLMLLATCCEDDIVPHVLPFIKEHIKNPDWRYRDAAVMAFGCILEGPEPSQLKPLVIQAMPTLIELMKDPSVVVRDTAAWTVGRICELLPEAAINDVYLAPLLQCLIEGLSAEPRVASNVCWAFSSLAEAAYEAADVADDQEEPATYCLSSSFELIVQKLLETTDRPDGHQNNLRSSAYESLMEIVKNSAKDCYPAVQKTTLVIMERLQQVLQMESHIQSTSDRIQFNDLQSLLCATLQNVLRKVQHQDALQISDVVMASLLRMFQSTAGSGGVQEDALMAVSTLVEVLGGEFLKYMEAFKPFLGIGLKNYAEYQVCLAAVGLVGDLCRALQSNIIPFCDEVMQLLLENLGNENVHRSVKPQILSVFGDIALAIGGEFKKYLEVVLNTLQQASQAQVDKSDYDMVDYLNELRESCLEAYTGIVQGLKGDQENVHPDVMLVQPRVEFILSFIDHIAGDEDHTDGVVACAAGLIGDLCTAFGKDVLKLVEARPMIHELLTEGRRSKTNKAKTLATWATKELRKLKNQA
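Inhibition scored from the CFP 486 nm/YFP 530 nm FRET ratio 45 min after adding 0.125 microM importin beta to 50 nM Rango biosensor preincubated 5 min with compound (room temperature, PBS with DTT, Tween-20, BSA). No-importin wells as positive control.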
An asterisk follows results filed as active; ? = inconclusive; / = not tested or not shown.

SMILES | GLA inh pH 4.5 | miR-21 reporter | Rango dissoc inh | Rango complex inh
CC1=C(C(=O)OCC2CCCO2)C(c2ccncc2)C2=C(CC(C)(C)CC2=O)N1 (centres undefined) | 25 | -1% | ? | ?
COc1ccc(OC)c(S(=O)(=O)NC2CC2)c1 | / | -4% | -5% | -3.2%
O=[N+]([O-])c1cc(S(=O)(=O)Nc2ccccc2)ccc1N1CCN(c2ccccc2)CC1 | -8 | 17% | 2% | 3.5%
Nc1cc(=O)[nH]c(SCC(=O)NCCC2=CCCCC2)n1 | / | / | 3% | -4.0%
CCOC(=O)Nc1ccc(C(N)=O)cc1 | 12 | -6% | 3% | 1.3%
O=C(CN1C(=O)CC(c2ccccc2)S(=O)(=O)c2ccccc21)N1CCCCC1 (centres undefined) | 2 | 7% | -3% | -1.0%
Cc1ccc(Oc2ccc(S(=O)(=O)NCC(C)(C)N3CCOCC3)cc2)cc1 | / | 5% | -14% | 0.8%
COc1cccc(/C(O)=C/c2nc3ccc(C(=O)NCCc4ccc(Cl)cc4)cc3[nH]c2=O)c1 | -2 | -17% | ? | ?
COc1ccc(NC(=O)COc2ccccc2)cc1Cl | / | -29% | -8% | -1.8%
CC(NC(=O)C(NC(=O)C(Cc1c[nH]c2ccccc12)NC(=O)OC(C)(C)C)C(C)C)C(N)=O (centres undefined) | -4 | 2% | -19% | -5.7%
CCN(CC)S(=O)(=O)c1ccc(NC(=O)CSc2nc3nc(C)cc(C)c3c(=O)[nH]2)cc1 | / | / | -12% | -1.7%
COc1ccccc1C(=O)NCC(=O)N=Nc1c(O)n(C(C)C)c2ccccc12 | / | -19% | 20% | -3.3%
CCn1c(=S)[nH]c2cc(S(=O)(=O)N3CCOCC3)ccc21 | / | / | 7% | -1.3%
COc1cccc(CNC(=O)c2cccc(Br)c2)c1 | -2 | -11% | ? | -1.5%
O=C(Nc1nccs1)c1ccc(S(=O)(=O)N2CCOCC2)cc1 | 1 | -3% | 8% | 3.6%
CC(=O)NCCNC(=O)c1cc(-c2cccc3ccccc23)nc2ccccc12 | / | / | 10% | -3.2%
COCCSc1ccccc1C(=O)Nc1cc([N+](=O)[O-])ccc1OC | 4 | -3% | 3% | 3.3%
COc1cccc(NC(=O)CCN2C(=O)c3ccc([N+](=O)[O-])cc3C2=O)c1 | 2 | 4% | -10% | -0.3%
CCOc1ccc(Oc2ccc(NC(=O)[C@@H](NC(N)=O)[C@@H](C)CC)cc2)cc1 | 9 | -23% | -3% | -0.8%
O=C(COC(=O)c1cccc([N+](=O)[O-])c1)c1ccc(OCc2ccccc2)cc1 | -8 | -27% | 4% | -0.5%
COc1ccc(-c2ccc(NCCN3CCOCC3)nn2)cc1OC | / | -1% | 20% | -2.5%
Cc1ccc(C(=O)CCC(=O)OCC(=O)NNC(=O)c2ccccc2Cl)cc1 | / | / | 4% | -2.8%
COc1ccc(N2C(=O)C3CCCN3C2c2cc(OC)c(OC)c(OC)c2)cc1 (centres undefined) | -4 | -8% | 5% | 2.6%
COc1ccc2c(c1)c(CCNNC(=O)C(C)(C)C)c(C)n2C(=O)c1ccc(Cl)cc1 | / | / | 2% | 0.4%
Cc1ccnc(NC(=O)c2ccc3[nH]c(=O)c(=O)[nH]c3c2)c1 | / | 0% | -4% | 5.3%
CC[C@@H](C)[C@H](C(CC(=O)N1CCCC1[C@@H](OC)[C@H](C)C(=O)N[C@H](Cc1ccccc1)c1nccs1)OC)N(C)C(=O)[C@H](NC(=O)[C@@H](C(C)C)N(C)C)C(C)C (some centres undefined) | / | / | -1% | -4.5%
Cn1c(=O)n(CCOc2ccc(Cl)cc2Cl)c2ccccc21 | 7 | -7% | -19% | 0.3%
O=C(Nc1ccc(S(=O)(=O)NCC2CCCO2)cc1)c1cnccn1 (centres undefined) | -6 | 0% | -11% | 0.5%
Cc1ccc(Oc2ccc(/C=N/O)cn2)cc1 | 10 | -49% | 8% | 1.0%
O=C(Cc1cccs1)NCc1ccc(Cl)cc1 | / | -28% | -2% | 3.2%
Cc1noc(C)c1CSCC(=O)Nc1cc(S(C)(=O)=O)ccc1Cl | / | / | 4% | -0.2%
CNC(=O)Cn1nc(-c2ccc(C)cc2)c2ccccc2c1=O | / | 1% | -4% | -1.0%
O=C1N/C(=N\N=C\c2ccco2)SC1Cc1ccccc1[N+](=O)[O-] (centres undefined) | 4 | -17% | -3% | -0.5%
Cc1ccc(C)c(CN2CCC(CNC(=O)Nc3ccc(C)c(C)c3)CC2)c1 | / | 1% | -5% | 2.0%
[N-]=[N+]=NC[C@H](c1ccccc1)N1CCN(Cc2ccccc2)CCC1=O | / | 0% | -3% | 2.8%
CCC(C)(NC=O)C(=O)Nc1c(C)cccc1C (centres undefined) | -5 | 0% | -1% | 1.0%
C=CCc1cccc2cc(C(=O)NC3=C(C#N)CCC3)c(=O)oc12 | 1 | -5% | -14% | -5.8%
Cc1cccc(NS(=O)(=O)c2cccc(C(=O)NCC(C)(C)N3CCOCC3)c2)c1 | / | 7% | 2% | 4.6%
O=c1c2ccccc2c(C=NCCCN2CCOCC2)c(O)n1Cc1ccccc1 | -13 | -19% | -19% | -1.1%
Cc1ccc(C2C(C#N)C(C#N)N3CCCN23)cc1 (centres undefined) | -6 | -2% | -10% | 0.3%
CSCc1ccc(C(=O)OCc2nc3ccccc3s2)o1 | / | / | -19% | -0.6%
O=C(CCN1C(=O)C2CCCCC2C1=O)Nc1ccc(F)c(F)c1F (centres undefined) | 19 | 2% | -6% | 1.1%
N#C/C(=C\c1cccc(OC(=O)c2cccs2)c1)C(N)=O | 1 | -10% | 7% | 1.5%
CCCCNC(=O)c1cccnc1SCC(=O)Nc1ccccc1OC | -5 | -7% | 7% | -0.5%
COc1ccc(C)cc1NC(=O)Nc1ccc(Br)cn1 | -3 | -3% | 1% | 1.4%
Cc1ccc(S(=O)(=O)c2ccc(Oc3ccccc3)cc2)cc1 | -1 | 0% | 2% | -3.1%
Fc1ccccc1-c1csc(-c2cccnc2)n1 | / | -46% | 1% | 6.7%
N#Cc1nc(COc2ccccc2)oc1N1CCCCC1 | -2 | -62% | -14% | 0.0%
CCC(C)(C)C1CCC2(CC1)NC(=O)N(CC(=O)NCCCc1ccccc1)C2=O (centres undefined) | / | / | 12% | 0.0%
O=C(CN1CC[n+]2c(-c3cccs3)csc21)c1ccc(-c2ccccc2)cc1 | -4 | 25% | -9% | -0.6%
O=C(CC(=O)Nc1cccc(Cl)c1Cl)Nc1cccc(Cl)c1Cl | / | -8% | -16% | 0.2%
O=C(N=Nc1c(O)[nH]c2ccccc12)c1cc(-c2ccc(F)cc2)n[nH]1 | -10 | -1% | -1% | -2.2%
CCCCn1c(N)c(N(CCC(C)C)C(=O)c2ccc(C)o2)c(=O)[nH]c1=O | / | / | -5% | 0.0%
CC(C)c1csc(CN2CCC(N3CCC(C(=O)N4CCOCC4)CC3)CC2)n1 | 9 | 1% | 3% | 0.2%
COc1ccc(CN(C(=O)Cn2nnc3ccccc32)C(C(=O)NC(C)(C)C)c2ccco2)cc1 (centres undefined) | 11 | -7% | 2% | -3.0%
O=C(CCN=C1NS(=O)(=O)c2ccccc21)Nc1ccc(F)cc1Cl | / | / | -2% | ?
CCn1c(CNC(=O)c2ccco2)nnc1SCC(=O)c1ccc(OC)cc1 | 3 | 0% | 13% | -0.3%
CCN(CC)CCNC(=O)c1cn(C)c2ccc(S(=O)(=O)N(C)C3CCCCC3)cc2c1=O | 0 | -4% | 13% | -0.4%
O=S(=O)(c1cccs1)N1CN(C2CCCCC2)c2nc3ccccc3nc21 | -5 | 3% | 10% | 3.6%
CCN(c1ccccc1)S(=O)(=O)c1cc(C(=O)Nc2ccccc2Cl)ccc1F | -6 | 7% | -10% | -0.1%

Additional compounds:
SMILES | GLA inh pH 4.5 | miR-21 reporter | Rango dissoc inh | Rango complex inh
Cc1cccc2cc3c(NC(=O)C(C)(C)C)nn(CC(C)C)c3nc12 | / | -1% | ? | ?
O=C(c1cccs1)n1nc(-c2ccc(Cl)cc2)nc1NCc1ccco1 | -5 | -8% | 11% | 0.0%
O=C1NCCCC1C(=O)NCCNC(=O)C(F)(F)F (centres undefined) | -3 | 1% | -1% | ?
O=C(CN1CCCCCC1)Nc1ccccc1 | 7 | -7% | 3% | 4.1%
CC12CCC3c4cc(CN5CCOCC5)c(O)cc4CCC3C1CCC2=O (centres undefined) | / | / | 3% | 2.4%
OCCC1CN(C/C=C/c2ccco2)CCN1Cc1ccccc1 (centres undefined) | / | 0% | 11% | 2.1%
O=C1CN(S(=O)(=O)c2cc(C(=O)O)ccc2Cl)c2ccccc2N1 | / | -3% | -7% | -6.5%
CCCOc1ccc(C(=O)NC(=S)Nc2nc3ccccc3s2)cc1 | 5 | -21% | 11% | 0.3%
CCCCc1cc(=O)oc2cc(OCc3nn[nH]n3)ccc12 | 0 | -3% | 2% | 1.9%
COc1ccc(N2C(=O)c3cccc4c(N(C)CCO)ccc(c34)C2=O)cc1 | / | -23% | ? | ?
NNC1=N[C@H]2CS(=O)(=O)C[C@H]2S1 | 0 | -4% | ? | 0.2%
Cn1c(=O)c2c(nc(N3CCCCCC3)n2CC(=O)c2ccc(Br)cc2)n(C)c1=O | -5 | -5% | -11% | 1.8%
O=C(CSc1ccc(-c2ccc3c(c2)OCO3)nn1)Nc1nccs1 | 3 | -16% | -4% | -3.2%
Cc1ccc[n+](-c2[nH]c(=O)sc2/C=N/N=C(\[O-])CCn2c3ccccc3c3ccccc32)c1 | 2 | -2% | 0% | 1.6%
CCN(CC)C(=O)COc1ccc(N(C)S(=O)(=O)c2ccc(NC(C)=O)cc2)cc1 | 1 | 0% | -12% | 0.1%

One compound at a time, as listed above. Screens in order: GLA inh pH 4.5	miR-21 reporter	Rango dissoc inh	Rango complex inh
`Cc1ccc(C2C(C#N)C(C#N)N3CCCN23)cc1` (centres undefined) is listed with -6	-2%	-10%	0.3%
`CC(C)c1csc(CN2CCC(N3CCC(C(=O)N4CCOCC4)CC3)CC2)n1` is listed with 9	1%	3%	0.2%
`Cc1ccc(Oc2ccc(S(=O)(=O)NCC(C)(C)N3CCOCC3)cc2)cc1` is listed with /	5%	-14%	0.8%
`Cc1noc(C)c1CSCC(=O)Nc1cc(S(C)(=O)=O)ccc1Cl` is listed with /	/	4%	-0.2%
`CCCCNC(=O)c1cccnc1SCC(=O)Nc1ccccc1OC` is listed with -5	-7%	7%	-0.5%

Continued.
SMILES | GLA inh pH 4.5 | miR-21 reporter | Rango dissoc inh | Rango complex inh
COc1ccccc1OCC(=O)N/N=C1/C=C(C)CC1 | -2 | -1% | 12% | 0.4%
O=C(COc1ccccc1)Nc1c2c(nn1-c1ccc(F)cc1)CS(=O)(=O)C2 | / | -5% | -16% | -1.6%
O=C(Nc1nccs1)c1ccc(F)c(S(=O)(=O)N2CCOCC2)c1 | / | 5% | -6% | 2.1%
O=C(NC1=NCCS1)c1ccncc1 | 2 | 0% | -7% | -0.2%
CC(C)(C)NC(=O)COC(=O)CNC(=O)c1cc(Cl)cc([N+](=O)[O-])c1 | 10 | -1% | -7% | -6.4%
CCc1ccc(NC(=O)C(=O)N/N=C(\C)CC(=O)NCc2ccc(Cl)cc2)cc1 | 6 | -15% | -16% | 5.2%
O=C(NC(=S)N1CCN(c2ccc([N+](=O)[O-])cc2)CC1)c1ccccc1 | -4 | -21% | -13% | -1.3%
COc1cccc(N2CCN(c3nc(C)cc(C)c3C#N)CC2)c1 | / | 5% | -9% | -5.6%
Cc1nn(CC(=O)NCc2cccc3ccccc23)c(=O)c2ccccc12 | -18 | -2% | 1% | -0.1%
O=C(NCCCn1ccnc1)c1ccccc1Br | / | -1% | 8% | 3.3%
CCc1cccc(OCCCN2C(=O)NC(C)(C)C2=O)c1 | -5 | -13% | -11% | -0.8%
CCn1cc(CCC(=O)O)c(C)n1 | -5 | -1% | 0% | 3.1%
Cc1cc(C(=O)N/N=C/C=C/c2ccccc2)c(C)o1 | -4 | -28% | 21% | 1.6%

A portion of the library (hit frequency here may not be typical).
